2A firefly: Primary qHTS Assay for Foot and Mouth Disease Virus Antivirals against NCGC Sytravon and CBC Compound Libraries: Firefly Luciferase Signal; HEK cells with a luciferase reporter of 2A StopGo recoding; Potency, µM (titrated, usually from 57.5 µM), for the others: at the top dose signal change, negative = less light; actives 0.23% (n = 120,000); AID 1745856, 2022; active = well fitted falling curve with a large enough effect; inconclusive = small, poorly fitted or top-dose-only effect; inactive = no such curve, though single readings can be large or run the other way; also: nearly all actives have a fitted effect of over 60% in size; overnight with compound
2A Renilla: Primary qHTS Assay for Foot and Mouth Disease Virus Antivirals against NCGC Sytravon and CBC Compound Libraries: Renilla Luciferase Signal. HEK cells with a luciferase reporter of 2A StopGo recoding. Potency, µM (titrated, usually from 57.5 µM), for the others: at the highest dose signal change, negative = less light. actives 0.32% (n = 120,000). AID 1745857, 2022; active means well fitted falling curve with a large enough effect; inconclusive means small, poorly fitted or top-dose-only effect; inactive means no such curve, though single readings can be large or run the other way; also: nearly all actives have a fitted effect of over 55% in size; overnight with compound
The depositor's hits bear a star; [ ] = remark or other dose. % is scaled to controls: 0 for no effect and ±100 for the full control effect; potency is read from the fitted curve at half-maximal effect.

C#CCOc1cccc(C2CC(=O)Nc3c2c(C)nn3-c2ncnc3nc[nH]c23)c1 (stereo not drawn) was read as 2A firefly -15.4% and 2A Renilla -16.4%.
Screening COC(=O)[C@@H](NC(=O)Nc1ccc2oc(-c3cccnc3)nc2c1)C(C)C returned 2A firefly 88.1%[activator] and 2A Renilla 3.8%.
Cc1cccc(C2C=C(c3ccc(F)cc3)Nc3nc4ccccc4n32)c1 (stereo not drawn) was read as 2A firefly 163.2%[activator] and 2A Renilla 5.4%.
For COc1c(Cl)cc(C(=O)Nc2cccc(-c3nc4ccccc4[nH]3)c2)cc1Cl the results were 2A firefly 24.3% and 2A Renilla -4.8%.
Screening NS(=O)(=O)c1ccc(N/N=C/c2ccc(Cl)cc2Cl)c([N+](=O)[O-])c1 returned 2A firefly 3.1% and 2A Renilla -8.1%.
`O=C(O)CNS(=O)(=O)c1ccc(Cl)s1` gave 2A firefly -12.9% and 2A Renilla -0.6%.
CCN(CC(=O)NC(N)=O)Cc1ccccc1C was read as 2A firefly 12.1% and 2A Renilla 9.0%.
Screening Cc1c(C(=O)NCc2ccccc2Cl)sc2ncnc(N(C)C3CCCCC3)c12 returned 2A firefly -1.4% and 2A Renilla -12.3%.
For O=[N+]([O-])c1cccc2ccc(/C=C/c3cccc(O)c3)nc12 the results were 2A firefly 174.6%[activator] and 2A Renilla -26.7%.
For Cc1ccc(C)c(Cn2c(=O)n(CCCC(=O)NCCc3ccc(Cl)cc3)c(=O)c3ccccc32)c1 the results were 2A firefly -20.6% and 2A Renilla -12.0%.
Cc1ccc2oc(=O)c3cnn(CC(=O)N4CCN(c5ccc(F)cc5)CC4)c3c2c1 was read as 2A firefly 2.9% and 2A Renilla -6.8%.
COCCCN(Cc1ccco1)C(=O)c1cc2c(s1)-c1ccccc1OC2 was read as 2A firefly 76.1%[activator] and 2A Renilla 151.7%[activator].
`Cc1ccc(NC(=O)c2ccc(=O)n(CC(=O)Nc3cccc(C)c3)n2)cc1` gave 2A firefly -23.5% and 2A Renilla -8.6%.
Screening CCNc1c(NC(=O)Nc2ccccc2Cl)c(=O)oc2ccccc12 returned 2A firefly 10.2% and 2A Renilla -2.1%.
COc1cccc(CNC(=O)CC(c2ccc(C)cc2)N2Cc3ccccc3C2=O)c1 (stereo not drawn) was read as 2A firefly 7.2% and 2A Renilla 161.8%[activator].
For CCn1c(=O)n(CC)c2cc(Sc3ccccc3)c(NC(=O)c3cccc(OC)c3)cc21 the results were 2A firefly 6.5% and 2A Renilla 8.8%.
Screening O=C(Nc1ccc(I)cc1C(F)(F)F)c1ccc(-c2ccccc2)cc1 returned 2A firefly 6.4% and 2A Renilla 8.7%.
Screening CC(C)c1ccc(OCC(=O)N(Cc2cccs2)C2CCS(=O)(=O)C2)cc1 (stereo not drawn) returned 2A firefly -18.8% and 2A Renilla 5.3%.
For CCOc1ccccc1C(=O)Nc1nnc(C2CCCCC2)s1 the results were 2A firefly 5.3% and 2A Renilla -7.9%.
`O=C(NCc1ccccc1CN1CCOCC1)c1cnn(-c2ccccc2)c1` gave 2A firefly -2.8% and 2A Renilla 13.2%.

Reprinted from the part before: 6 compounds; new compounds follow.
COc1cccc(CNC(=O)CC(c2ccc(C)cc2)N2Cc3ccccc3C2=O)c1 (stereo not drawn) was read as 2A firefly 7.2% and 2A Renilla 161.8%[activator].
For CCn1c(=O)n(CC)c2cc(Sc3ccccc3)c(NC(=O)c3cccc(OC)c3)cc21 the results were 2A firefly 6.5% and 2A Renilla 8.8%.
Screening O=C(Nc1ccc(I)cc1C(F)(F)F)c1ccc(-c2ccccc2)cc1 returned 2A firefly 6.4% and 2A Renilla 8.7%.
Screening CC(C)c1ccc(OCC(=O)N(Cc2cccs2)C2CCS(=O)(=O)C2)cc1 (stereo not drawn) returned 2A firefly -18.8% and 2A Renilla 5.3%.
For CCOc1ccccc1C(=O)Nc1nnc(C2CCCCC2)s1 the results were 2A firefly 5.3% and 2A Renilla -7.9%.
`O=C(NCc1ccccc1CN1CCOCC1)c1cnn(-c2ccccc2)c1` gave 2A firefly -2.8% and 2A Renilla 13.2%.
Screening COc1cccc(-n2ccnc2SCC(=O)Nc2cccc3ccccc23)c1 returned 2A firefly -20.0% and 2A Renilla 12.3%.
O=C(NNC(=S)Nc1ccccc1)C(c1ccccc1)c1ccccc1 was read as 2A firefly 4.0% and 2A Renilla 251.5%[activator].
For Cc1ccc(C(=O)Oc2cccc(OC(=O)c3ccc(C)cc3)c2C)cc1 the results were 2A firefly 17.2% and 2A Renilla -1.1%.
Oc1cccc(Nc2ncnc3sc4c(c23)CCCC4)c1 was read as 2A firefly 19.7% and 2A Renilla -14.4%.
Screening Cc1ccc(C)c(OCc2ccc(-c3nc(C#N)c(N4CCC(C(N)=O)CC4)o3)o2)c1 returned 2A firefly -18.1% and 2A Renilla -0.3%.
Screening COc1ccc(C#CCN(C)/C(N)=N/C(=O)OCc2ccccc2)cc1 returned 2A firefly 4.4% and 2A Renilla 27.4%.
For O=C(CSc1ccc2c(c1)OCCCO2)N1CCCc2ccccc21 the results were 2A firefly 80.1%[activator] and 2A Renilla 39.4%[activator].
For Cc1cc(C)c2nc(-c3ccccn3)cc(C(=O)O)c2c1 the results were 2A firefly 6.9% and 2A Renilla -8.4%.
Screening CCC(C)c1ccccc1NC(=O)CSc1ncnc2ccccc12 (stereo not drawn) returned 2A firefly -24.9% and 2A Renilla -32.6%.
`Cc1nc(N2CCCC2)c2c(C(=O)Nc3ccc(Br)cc3F)c(C)oc2n1` gave 2A firefly -22.2% and 2A Renilla 5.1%.
CNC(=S)NNC(=O)c1csc(C)c1C was read as 2A firefly 14.0% and 2A Renilla -16.2%.
Screening CC(CNCc1cccs1)CN1CCCCC1 (stereo not drawn) returned 2A firefly -3.4% and 2A Renilla -6.3%.
`COc1cccc(NC(=O)C(C)n2cnc3c2c(=O)n(C)c(=O)n3C)c1` (stereo not drawn) gave 2A firefly 17.3% and 2A Renilla 1.7%.
Screening CC(=O)c1ccc(C(=O)OC(C)C(=O)c2ccc(C)cc2)s1 (stereo not drawn) returned 2A firefly 77.4%[activator] and 2A Renilla 4.1%.
For Cc1cc(C)cc(NC(=O)CCCn2c3ccccc3c(=O)c3ccccc32)c1 the results were 2A firefly 65.5%[activator] and 2A Renilla 75.7%[activator].
CCOCCCNc1oc(-c2ccc(S(=O)(=O)N3CCCC3)cc2)nc1C#N was read as 2A firefly 7.5% and 2A Renilla 24.6%.
Cc1ccc(N2CCN(C(=O)c3nn(C)c4c3CSc3ccccc3-4)CC2C)cc1 (stereo not drawn) was read as 2A firefly -11.4% and 2A Renilla -10.8%.
For COCCNC(=O)CSc1nc2cc3c(cc2c(=O)n1Cc1ccc(C(=O)NCCc2ccc(OC)c(OC)c2)cc1)OCO3 the results were 2A firefly -16.7% and 2A Renilla -5.6%.
For CCOc1ccc(NC(=O)C2CCC(CNS(=O)(=O)c3ccc(Br)s3)CC2)cc1 (stereo not drawn) the results were 2A firefly -12.8% and 2A Renilla -12.8%.
`c1ccc(-c2nc(CN3CCCC3c3cccs3)co2)cc1` (stereo not drawn) gave 2A firefly 52.2%[activator] and 2A Renilla 0.2%.
Cc1ccc(N)cc1O was read as 2A firefly -8.4%[22.9 µM] and 2A Renilla -22.1%[114 µM].
Screening Cc1oc(-c2ccccc2)nc1CC(=O)NCCCN1CCOCC1 returned 2A firefly 4.6% and 2A Renilla -2.6%.
c1ccc2c(c1)OCCOCCOCCOc1ccccc1OCCOCCOCCO2 was read as 2A firefly -18.6% and 2A Renilla -21.3%.
For CCc1noc2nc(C)nc(N3CCCC(C(=O)NCc4ccccc4F)C3)c12 (stereo not drawn) the results were 2A firefly -0.4% and 2A Renilla 1.3%.
`CCOC(=O)NC(C)C12CC3CC(CC(C3)C1)C2` (stereo not drawn) gave 2A firefly 1.7% and 2A Renilla 6.8%.
Screening Cc1cccc(C)c1NC(=O)CN(C)S(=O)(=O)c1ccc2c(c1)n(C)c(=O)c(=O)n2C returned 2A firefly 13.9% and 2A Renilla 9.1%.
Screening Cc1cccc(C)c1NC1=NCCCS1 returned 2A firefly -14.9%[11.5 µM] and 2A Renilla -15.8%.
`CC1(C)CC(NC(=S)Nc2ccc(Cl)cc2)CC(C)(C)N1` gave 2A firefly 9.1% and 2A Renilla 3.1%.
Screening CC(C)N(C(=O)Cn1c(C2CC(=O)N(Cc3ccc(F)cc3)C2)nc2ccccc21)c1ccccc1 (stereo not drawn) returned 2A firefly -10.5% and 2A Renilla -0.8%.
`O=C(Nc1ccnn1Cc1ccccc1Cl)c1n[nH]c(=O)c2ccccc12` gave 2A firefly -28.1% and 2A Renilla -32.9%.
Screening Cc1ccc(CNC(=O)C2CCCN(S(=O)(=O)c3ccc4c(ccn4C)c3)C2)cc1 (stereo not drawn) returned 2A firefly -30.2% and 2A Renilla -15.9%.
For CCCNc1c(NS(=O)(=O)c2ccc(F)c(F)c2)c(=O)oc2ccccc12 the results were 2A firefly 10.2% and 2A Renilla -4.5%.
`CSc1ncc(C(=O)Nc2cccc(C)c2C)c(-c2ccccc2)n1` gave 2A firefly -10.4% and 2A Renilla 0.5%.
For O=S(=O)(c1ccc(F)c(F)c1)N1CCN(Cc2ncc(-c3ccccc3)o2)CC1 the results were 2A firefly 78.0%[activator] and 2A Renilla -4.8%.
For Cc1cccc(CSCC(=O)O)c1 the results were 2A firefly 11.5% and 2A Renilla -0.7%.
`CCn1cc(C(=O)NCCCOC)c(=O)c2cc(S(=O)(=O)N3CCc4ccccc4C3)ccc21` gave 2A firefly 0.0% and 2A Renilla -6.8%.
Screening COc1ccc(-c2nc3ccccc3c(=O)n2CCOc2cccc(C)c2)cc1 returned 2A firefly 7.3% and 2A Renilla -5.1%.
`Cc1ccc(S(=O)(=O)/N=C(\N)Nc2nc(C)c3ccc(C)cc3n2)cc1` gave 2A firefly 13.7% and 2A Renilla 254.6%[activator].
`Cc1ccc(-n2nc(C(=O)Nc3ccc(F)cc3Cl)c(=O)n(C)c2=O)cc1` gave 2A firefly -2.2% and 2A Renilla 5.8%.
For COc1cccc(Nc2nc(-c3ccc4c(c3)CCN4S(C)(=O)=O)cs2)c1 the results were 2A firefly 119.1%[activator] and 2A Renilla 56.0%[activator].
Screening CCOC(=O)c1c(C)[nH]c(C)c1S(=O)(=O)N1CCC(C(=O)Nc2ccc(C)c(Cl)c2)CC1 returned 2A firefly -8.8% and 2A Renilla 7.2%.
Screening COc1ccc(C(NC(=O)CSc2ccc3c(c2)OCCCO3)c2ccc(OC)cc2)cc1 returned 2A firefly -8.9% and 2A Renilla 42.6%.
`Cc1cc(NC(=O)c2cccnc2)cc(-c2nc3cc(C(C)C)ccc3o2)c1O` gave 2A firefly 88.1%[activator] and 2A Renilla -17.7%.
`Cc1c(C(=O)Nc2ccc(F)c(C(F)(F)F)c2)sc2nc(-c3ccc(F)cc3)cn12` gave 2A firefly 0.0% and 2A Renilla 17.3%.
`Cc1ccc2c(C)c(CCC(=O)NC34CC5CC(CC(C5)C3)C4)c(=O)oc2c1` gave 2A firefly 28.8% and 2A Renilla 12.9%.
COc1ccc(Cl)cc1NC(=O)CSC1=Nc2ccccc2C2=NC(CCC(=O)NCc3ccco3)C(=O)N12 (stereo not drawn) was read as 2A firefly -8.5% and 2A Renilla 37.1%[activator].
O=C(c1cccc(C(F)(F)F)c1)N1CCCN(C2CC2)CC1 was read as 2A firefly -1.7% and 2A Renilla 0.9%.
COc1cc(OC)cc(C(=O)Oc2cccc3ccccc23)c1 was read as 2A firefly 14.1% and 2A Renilla 5.0%.
`Cc1noc(CSc2ccccc2C(=O)N2CCCc3ccccc32)n1` gave 2A firefly 72.7%[activator] and 2A Renilla 20.5%.
`O=C(Nc1cccc(C(F)(F)F)c1)C1=CCN(Cc2ccccc2F)CC1` gave 2A firefly 42.2%[activator] and 2A Renilla 46.8%[activator].
Cc1ccc(NC(=O)c2ccc3ncsc3c2)cc1C was read as 2A firefly 78.6%[activator] and 2A Renilla 25.5%.
Cc1cc(NC(=O)NCC(c2ccco2)N2CCCCC2)no1 (stereo not drawn) was read as 2A firefly 1.4% and 2A Renilla -5.5%.
For C=CCC1NCCc2c(Br)cccc21 (stereo not drawn) the results were 2A firefly 0.0% and 2A Renilla 37.5%[activator][1.06 µM].
For CCOC(=O)CSc1nc(-c2ccc(OCC)cc2)cc(C(F)(F)F)c1C#N the results were 2A firefly -21.8% and 2A Renilla -13.9%.
For CCOC(=O)c1nc2ccccc2nc1Nc1cccc(OC)c1 the results were 2A firefly 90.9%[activator] and 2A Renilla 5.7%.
For O=C(NCCc1coc(-c2ccc(F)cc2)n1)Nc1ccc(Cl)cc1 the results were 2A firefly -6.3% and 2A Renilla -3.1%.
`O=C(CSc1nnc(-c2cccs2)n1C1CC1)N1CCc2ccccc2C1` gave 2A firefly -6.4% and 2A Renilla -9.1%.
CCc1ccc(-c2cn3c(n2)sc2cc(C(=O)NCCc4ccc(OC)cc4OC)ccc23)cc1 was read as 2A firefly 26.4% and 2A Renilla -2.5%.
`Cc1ccc2c(C)cc(=S)[nH]c2c1` gave 2A firefly 11.4% and 2A Renilla -3.3%.
Cc1ccc(C)c(Nc2cc(C(=O)NCCCN(C)C3CCCCC3)c3ccccc3n2)c1 was read as 2A firefly -14.0% and 2A Renilla 31.6µM*.
Screening O=C(Nc1ccccc1C(F)(F)F)Nc1c[nH]c(=O)[nH]c1=O returned 2A firefly 17.8% and 2A Renilla 12.6%.
For Cc1ccc(-c2nc(CN(C)CC(=O)N(C)C)co2)cc1 the results were 2A firefly 157.9%[activator] and 2A Renilla 1.7%.
`CCc1ccc2c(CSc3nncn3C(C)C)cc(=O)oc2c1` gave 2A firefly 0.0% and 2A Renilla 6.0%.
Cc1cc(OCC(=O)Nc2sc3c(c2C#N)CCC(C)C3)ccc1Cl (stereo not drawn) was read as 2A firefly -6.0% and 2A Renilla -9.6%.

An unsorted share of the library (roughly 0.55% active in at least one column).
